Bioassay records (PubChem)
HSV augment – enhancers of HSV replication in host cells, fold increase, host cell viability. HSV replication augmentation in cells. maximum fold increase. 220,000 tested, 0.005% active;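 active means peak rise of 1.5-fold or more in the series; tested in PC3 cells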;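 further: first round at 10 µM; read as green reporter fluorescence; hits show the peak of a series up to 25 µM; 1 = signal of infected wells without compound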
INS promoter inh – inhibitors of insulin promoter-driven GFP, primary screen, imaging, TRM-6 cells (human fetal islet line), eGFP reporter, cell count | reporter expression induced with tamoxifen | inhibition, % at 2 µM | 130,000 tested, 0.9% active | AID 1273, 2008;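 active means inhibition above the mean plus 3 SD, with well images judged a real hit on visual review, cut at about 60% in these data, passing the limit was not always enough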
RGS16-Gao – modulators of RGS16 binding to Galphao, primary screen, biochemical, human proteins, multiplexed bead flow cytometry. AID 1441, 2008. bead-based flow cytometry RGS16-Galphao binding, fluorescence; actives lie on both sides. binding response (% of control), % at 10 µM. 220,000 tested, 0.38% active;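 active means below 25% or above 175%, edge rows of some plates excepted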;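 further: Galphao activated by GDP with aluminum fluoride before binding; 100% = wells without compound and 0% = beads without RGS; some results beyond the cut were filed as inactive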
GALR2 agonist – GALR2 receptor agonists, primary screen, cell-based. Galanin receptor type 2 (Homo sapiens), O43603. GALR2-expressing cells, agonist activation read-out. activation, %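 (tested at 5 µM)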. 140,000 tested, 0.48% active. AID 803, 2007;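 active means above mean plus 3 SD of all compounds, about 5% in these data, not always enough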;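 further: 0% = vehicle buffer wells and 100% = reference agonist at full effect; tested in CHO reporter cells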
PKD1 kinase inh – inhibitors of human PKD1 kinase, biochemical, fluorescence polarization; inhibition, %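 (about 10 µM by stock and volumes)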; 200,000 tested, 0.056% active; AID 797, 2007; PKD1 kinase fluorescence polarization assay; Serine/threonine-protein kinase D1 (Homo sapiens), Q15139;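 active means inhibition of 50% or more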;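 further: controls were vehicle for no effect and a reference inhibitor for full effect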
Target sequence (Q15139 whole entry, looked up): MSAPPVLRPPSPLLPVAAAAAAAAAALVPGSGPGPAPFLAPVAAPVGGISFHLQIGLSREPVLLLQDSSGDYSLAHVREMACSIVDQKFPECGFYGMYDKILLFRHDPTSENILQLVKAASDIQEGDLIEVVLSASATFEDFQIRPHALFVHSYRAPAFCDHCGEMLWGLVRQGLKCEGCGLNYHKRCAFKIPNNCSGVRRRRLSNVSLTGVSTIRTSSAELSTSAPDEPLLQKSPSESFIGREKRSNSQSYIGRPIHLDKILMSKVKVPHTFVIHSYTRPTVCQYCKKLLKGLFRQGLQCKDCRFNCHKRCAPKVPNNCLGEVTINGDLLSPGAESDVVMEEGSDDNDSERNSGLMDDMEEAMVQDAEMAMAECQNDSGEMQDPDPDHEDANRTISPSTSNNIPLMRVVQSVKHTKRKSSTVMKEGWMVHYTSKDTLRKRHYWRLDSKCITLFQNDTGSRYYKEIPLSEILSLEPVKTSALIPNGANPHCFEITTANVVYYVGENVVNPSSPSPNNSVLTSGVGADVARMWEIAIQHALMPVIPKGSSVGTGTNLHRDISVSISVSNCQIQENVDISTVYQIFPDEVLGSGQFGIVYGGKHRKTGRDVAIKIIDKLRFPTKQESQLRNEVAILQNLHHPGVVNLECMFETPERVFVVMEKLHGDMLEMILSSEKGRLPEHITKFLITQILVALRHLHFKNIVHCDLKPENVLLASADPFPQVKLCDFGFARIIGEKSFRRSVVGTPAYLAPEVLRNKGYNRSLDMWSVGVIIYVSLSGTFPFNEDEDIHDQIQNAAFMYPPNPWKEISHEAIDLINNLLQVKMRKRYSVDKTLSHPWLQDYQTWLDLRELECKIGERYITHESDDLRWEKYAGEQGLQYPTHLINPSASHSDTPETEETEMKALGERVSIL
INS promoter inh cell count – second read-out of INS promoter inh, no call of its own (marks repeat the call); normalized cell count, %; measured here: cell count, toxicity; reference of the scale not given here;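 cells exposed to compound for 48 h; stained nuclei by imaging scaled within each plate; lower means fewer cells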
HSV augment primary fold – further read-out of HSV augment, marked with its call; fold increase; compound at 10 µM; measured here: primary screen fold increase 10 uM; tested in PC3 cells;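 GFP signal in the first replicate; 1 = infected wells without compound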
Active calls of the source: *.

`Cc1ccccc1CS(=O)(=O)Cc1ccc(C(=O)NCC2CCCO2)o1` (configuration not stated) gave INS promoter inh 0.0, RGS16-Gao 75.9, GALR2 agonist -1.6, PKD1 kinase inh -3.3 and INS promoter inh cell count 122.9.
For O=C1CC(c2ccccc2)c2cc(O)ccc2O1 (configuration not stated) the results were HSV augment inactive, INS promoter inh -18.8, RGS16-Gao 92.5, GALR2 agonist -1.1, PKD1 kinase inh -4.2, INS promoter inh cell count 85.3 and HSV augment primary fold 0.97.
CC1=C(C(=O)Nc2ccc(C)cc2C)C(c2ccc([N+](=O)[O-])cc2)n2ncnc2N1 (configuration not stated) was read as HSV augment inactive, INS promoter inh 20.4, RGS16-Gao 103.5, GALR2 agonist 0.4, PKD1 kinase inh -6.5, INS promoter inh cell count 127.0 and HSV augment primary fold 0.76.
O=C(NCc1ccccc1)c1ccc(Cl)cc1[N+](=O)[O-] was read as HSV augment inactive, INS promoter inh -25.0, RGS16-Gao 100.6, GALR2 agonist -1.4, PKD1 kinase inh 0.6, INS promoter inh cell count 81.4 and HSV augment primary fold 0.97.
OC(CSc1c(Cl)cccc1Cl)CN1CCN(c2ccc(F)cc2)CC1 (configuration not stated) was read as HSV augment inactive, INS promoter inh -15.6, RGS16-Gao 104.1, GALR2 agonist 0.5, PKD1 kinase inh 2.7, INS promoter inh cell count 67.8 and HSV augment primary fold 0.78.
For O=C(c1ccc(Oc2ccc(C(F)(F)F)cc2[N+](=O)[O-])cc1)N1CCOCC1 the results were HSV augment inactive, INS promoter inh 32.4, RGS16-Gao 69.0, GALR2 agonist -1.0, PKD1 kinase inh 7.8, INS promoter inh cell count 98.3 and HSV augment primary fold 1.01.
`CCN(CC)CCNC(=O)c1cc(Sc2nnc(C)s2)nc2ccccc12` gave HSV augment inactive, INS promoter inh -23.3, RGS16-Gao 98.8, GALR2 agonist -1.9, PKD1 kinase inh 7.8, INS promoter inh cell count 106.5 and HSV augment primary fold 0.99.
`O=C(COC(=O)CCC1CCCCC1)Nc1ccc(OC(F)F)cc1` gave HSV augment inactive, INS promoter inh 9.1, RGS16-Gao 111.4, GALR2 agonist -1.7, PKD1 kinase inh -7.7, INS promoter inh cell count 116.1 and HSV augment primary fold 0.997.
For CC(C)(C)c1ccc(CS(=O)(=O)CC2(O)CCN(C(=O)c3cccc(C(F)(F)F)c3)CC2)cc1 the results were HSV augment inactive, INS promoter inh -28.9, RGS16-Gao 99.5, GALR2 agonist 0.3, PKD1 kinase inh 3.0, INS promoter inh cell count 133.3 and HSV augment primary fold 0.93.
`CN(C)CCNC(=O)c1ccc(-c2nn(C)c(=O)c3ccccc23)cc1` gave HSV augment inactive, INS promoter inh -15.6, RGS16-Gao 111.0, GALR2 agonist 0.3, PKD1 kinase inh 3.5, INS promoter inh cell count 96.2 and HSV augment primary fold 0.88.

3 successive compounds already listed, quoted:
`Cc1ccccc1CS(=O)(=O)Cc1ccc(C(=O)NCC2CCCO2)o1` (configuration not stated) gave INS promoter inh 0.0, RGS16-Gao 75.9, GALR2 agonist -1.6, PKD1 kinase inh -3.3 and INS promoter inh cell count 122.9.
For O=C1CC(c2ccccc2)c2cc(O)ccc2O1 (configuration not stated) the results were HSV augment inactive, INS promoter inh -18.8, RGS16-Gao 92.5, GALR2 agonist -1.1, PKD1 kinase inh -4.2, INS promoter inh cell count 85.3 and HSV augment primary fold 0.97.
CC1=C(C(=O)Nc2ccc(C)cc2C)C(c2ccc([N+](=O)[O-])cc2)n2ncnc2N1 (configuration not stated) was read as HSV augment inactive, INS promoter inh 20.4, RGS16-Gao 103.5, GALR2 agonist 0.4, PKD1 kinase inh -6.5, INS promoter inh cell count 127.0 and HSV augment primary fold 0.76.

(list continues)
COc1ccc(N2C(=O)CCC(C(=O)c3ccccc3)=C2C)cc1 was read as HSV augment inactive, INS promoter inh 29.6, RGS16-Gao 93.9, GALR2 agonist 0.0, PKD1 kinase inh -5.2, INS promoter inh cell count 100.3 and HSV augment primary fold 0.67.
Screening COCCNC(=O)CSc1nccn1Cc1ccc2c(c1)OCO2 returned HSV augment inactive, RGS16-Gao 102.0, PKD1 kinase inh -1.3 and HSV augment primary fold 0.86.
For Cc1cccc(OCC(=O)Nc2ccc(C(=O)NCC(C)C)cc2)c1 the results were HSV augment inactive, RGS16-Gao 103.7, PKD1 kinase inh 1.6 and HSV augment primary fold 0.88.
Screening OCC1(CC2CCCCO2)CCN(C/C=C/c2ccccc2)CC1 (configuration not stated) returned HSV augment inactive, INS promoter inh 0.0, RGS16-Gao 102.4, PKD1 kinase inh 0.2, INS promoter inh cell count 81.5 and HSV augment primary fold 0.82.
O=C(NC1CCN(CC(=O)N(c2ccccc2)c2ccccc2)CC1)c1ccc([N+](=O)[O-])cc1 was read as HSV augment inactive, RGS16-Gao 98.0, PKD1 kinase inh 1.2 and HSV augment primary fold 0.88.
`O=C(O)c1ccc(-n2c(-c3cc(-c4ccco4)[nH]n3)n[nH]c2=S)cc1` gave HSV augment inactive, INS promoter inh -52.6, RGS16-Gao 102.2, GALR2 agonist 0.3, PKD1 kinase inh -3.1, INS promoter inh cell count 78.6 and HSV augment primary fold 0.91.
Screening CC(C)C(=O)Nc1nc(-c2ccc([N+](=O)[O-])cc2)cs1 returned HSV augment inactive, RGS16-Gao 113.9, PKD1 kinase inh 0.1 and HSV augment primary fold 1.04.
Screening CC(C)c1ccccc1NC(=S)NN(Cc1ccccc1)c1ccccc1 returned HSV augment inactive, INS promoter inh -11.6, RGS16-Gao 117.3, GALR2 agonist -2.8, PKD1 kinase inh 6.5, INS promoter inh cell count 168.0 and HSV augment primary fold 0.87.
For COc1ccccc1-n1c(C)nc(=O)c(-c2ccccc2)c1C the results were HSV augment inactive, INS promoter inh 31.8, RGS16-Gao 104.0, GALR2 agonist -3.9, PKD1 kinase inh -4.3, INS promoter inh cell count 111.9 and HSV augment primary fold 0.99.
C=CCn1c(-c2sc3nc(C)cc(C)c3c2N)n[nH]c1=S was read as HSV augment inactive, RGS16-Gao 98.9 and HSV augment primary fold 1.19.
Screening Cc1cccc(N2CN(Cc3cccnc3)CNC2=S)c1C returned HSV augment inactive, INS promoter inh 40.0, RGS16-Gao 102.5, GALR2 agonist 0.3, PKD1 kinase inh -4.4, INS promoter inh cell count 114.7 and HSV augment primary fold 0.95.
Screening c1ccc(-n2ncc3c(NCc4ccco4)ncnc32)cc1 returned HSV augment inactive, INS promoter inh -280.0, RGS16-Gao 88.5, GALR2 agonist 0.2, PKD1 kinase inh 3.9, INS promoter inh cell count 71.7 and HSV augment primary fold 0.86.
For Cc1ccc(-c2cc(C)nc3ncnn23)cc1 the results were HSV augment inactive, RGS16-Gao 101.0, GALR2 agonist -0.8, PKD1 kinase inh -5.7 and HSV augment primary fold 0.94.
`Cc1ccc(NC(=O)c2ccccc2[N+](=O)[O-])nc1` gave HSV augment inactive, INS promoter inh -17.2, RGS16-Gao 73.9, GALR2 agonist -0.7, PKD1 kinase inh 0.9, INS promoter inh cell count 113.5 and HSV augment primary fold 1.
`CN(Cc1ccccc1)c1oc(-c2ccco2)nc1C#N` gave HSV augment inactive, INS promoter inh 0.0, RGS16-Gao 100.7, GALR2 agonist -1.2, PKD1 kinase inh 0.2, INS promoter inh cell count 61.1 and HSV augment primary fold 0.91.
For CC1(C)N(O)CC(c2cccs2)=[N+]1[O-] the results were HSV augment inactive, INS promoter inh 15.4, RGS16-Gao 102.0, GALR2 agonist -1.3, PKD1 kinase inh -7.9, INS promoter inh cell count 88.2 and HSV augment primary fold 0.89.
COc1ccc(C(=O)O)cc1NS(=O)(=O)c1cccc2nsnc12 was read as HSV augment inactive, RGS16-Gao 97.1, GALR2 agonist -2.4, PKD1 kinase inh -0.3 and HSV augment primary fold 0.94.
`COP(=O)(OC)C(Nc1ccc([N+](=O)[O-])cc1)c1ccccc1` (configuration not stated) gave HSV augment inactive, RGS16-Gao 101.8 and HSV augment primary fold 1.11.
`Cc1ccc(NC(=O)CSc2nnc(CNC(=O)C34CC5CC(CC(C5)C3)C4)n2-c2ccc(F)cc2)cc1` gave RGS16-Gao 101.7, GALR2 agonist 0.8 and PKD1 kinase inh 6.9.
CC(=O)c1cnc2ncnn2c1C was read as HSV augment inactive, INS promoter inh 50.0, RGS16-Gao 104.7, GALR2 agonist -1.0, PKD1 kinase inh 1.0, INS promoter inh cell count 134.5 and HSV augment primary fold 0.91.
Screening Cc1ccc(Cn2nc3c(cc2=O)CCc2ccccc2-3)cc1 returned HSV augment inactive, INS promoter inh 7.7, RGS16-Gao 99.7, PKD1 kinase inh 2.2, INS promoter inh cell count 91.2 and HSV augment primary fold 1.03.
`COc1ccc(/C=C/C(=O)c2cc(F)ccc2OC(=O)c2ccc(OC)c(OC)c2)cc1OC` gave HSV augment inactive, INS promoter inh -35.7, RGS16-Gao 116.0, GALR2 agonist -1.3, PKD1 kinase inh 2.4, INS promoter inh cell count 90.7 and HSV augment primary fold 0.65.
For Cc1nc2ccccc2c2oc(C(=O)N3CCc4ccccc43)cc12 the results were HSV augment inactive, RGS16-Gao 98.2, PKD1 kinase inh 2.6 and HSV augment primary fold 0.87.
`COc1ccc(NC(=O)N2CCN(c3nc(-c4cccc(OC)c4)cs3)CC2)cc1` gave HSV augment inactive, INS promoter inh 43.2, RGS16-Gao 98.3, GALR2 agonist -2.5, PKD1 kinase inh -13.6, INS promoter inh cell count 52.3 and HSV augment primary fold 1.12.
Screening CC(NC(=O)Nc1ccc(Cl)cc1)C(c1cccs1)N1CCOCC1 (configuration not stated) returned HSV augment inactive, RGS16-Gao 106.0, GALR2 agonist -1.9, PKD1 kinase inh -2.4 and HSV augment primary fold 0.92.
Screening O=C(CNC(=O)c1ccccc1)OCc1cc(=O)n2cc(Br)ccc2n1 returned HSV augment inactive, INS promoter inh -92.9, RGS16-Gao 80.4, GALR2 agonist -1.0, PKD1 kinase inh -13.2, INS promoter inh cell count 34.9 and HSV augment primary fold 0.96.
Screening Cn1c(N)c(C(=O)CSc2nnc(-c3ccccc3F)n2C2CC2)c(=O)n(C)c1=O returned HSV augment inactive, RGS16-Gao 100.1, PKD1 kinase inh 1.1 and HSV augment primary fold 1.02.
Screening C/C=C/Cn1c(SCCCc2ccccc2)nc2c1c(=O)[nH]c(=O)n2C returned HSV augment inactive, RGS16-Gao 98.9, GALR2 agonist 2.1, PKD1 kinase inh 0.7 and HSV augment primary fold 0.84.
Screening O=C(CCSc1ccccc1)NCc1cccnc1 returned HSV augment inactive, INS promoter inh 10.0, RGS16-Gao 113.8, GALR2 agonist -2.1, PKD1 kinase inh 2.5, INS promoter inh cell count 67.6 and HSV augment primary fold 1.01.
For CCOc1c(Br)cc(/C=C2/SC(=O)N(CC(=O)N3CCCC3)C2=O)cc1OC the results were RGS16-Gao 6.7, GALR2 agonist -1.6 and PKD1 kinase inh -6.2.
`CCN(CC)CCCNC(=O)C1CCN(c2ncnc3c2sc2cccc(F)c23)CC1` gave HSV augment inactive, RGS16-Gao 103.2 and HSV augment primary fold 0.92.
For O=C(COc1ccccc1Br)Nc1ccccc1C(F)(F)F the results were HSV augment inactive, RGS16-Gao 97.0, PKD1 kinase inh -1.2 and HSV augment primary fold 1.04.
Screening COc1ccccc1N1CCN(C(=O)C(C)N(c2ccc(C)cc2)S(C)(=O)=O)CC1 (configuration not stated) returned HSV augment inactive, INS promoter inh -3.5, RGS16-Gao 98.4, GALR2 agonist -2.9, PKD1 kinase inh 7.7, INS promoter inh cell count 141.5 and HSV augment primary fold 1.04.
COc1ccc(/C=C(/NC(=O)c2ccc([N+](=O)[O-])cc2)C(=O)NCCCN(C)C)cc1 was read as HSV augment inactive, INS promoter inh 27.8, RGS16-Gao 92.3, PKD1 kinase inh -0.5, INS promoter inh cell count 63.3 and HSV augment primary fold 0.96.
Screening c1cncc(Cc2cc3ccccc3[nH]2)c1 returned HSV augment inactive, INS promoter inh 23.7, RGS16-Gao 102.6, GALR2 agonist -0.9, PKD1 kinase inh -10.0, INS promoter inh cell count 106.6 and HSV augment primary fold 0.99.
Screening Cc1ccc(/C=C(/C#N)c2nc(CCN3C(=O)c4ccccc4C3=O)cs2)cc1 returned HSV augment inactive, INS promoter inh -24.4, RGS16-Gao 102.8, GALR2 agonist 0.7, PKD1 kinase inh 3.5, INS promoter inh cell count 128.1 and HSV augment primary fold 0.76.
Screening CC(=O)N1CCCc2cc(S(=O)(=O)NCc3ccc(C)cc3)ccc21 returned HSV augment inactive, INS promoter inh -50.0, RGS16-Gao 105.2, GALR2 agonist -1.8, PKD1 kinase inh -15.3, INS promoter inh cell count 92.8 and HSV augment primary fold 1.04.
`COc1ccc(CNc2nc(-c3cccnc3)nn2C(=O)c2ccco2)cc1` gave HSV augment inactive, INS promoter inh -50.0, RGS16-Gao 107.5, GALR2 agonist -1.0, PKD1 kinase inh 1.5, INS promoter inh cell count 95.3 and HSV augment primary fold 0.94.
